StopGo RLuc – FMDV 2A StopGo reporter, Renilla signal. HEK cells with a luciferase reporter of 2A StopGo recoding. Potency, µM (titrated, usually from 57.5 µM), without a hit: at the highest dose signal change, negative = less light. 120,000 compounds, 0.32% hits. AID 1745857; active means well fitted falling curve with a large enough effect; inconclusive means small, poorly fitted or top-dose-only effect; inactive means no such curve, though single readings can be large or run the other way; also: nearly all actives have a fitted effect of over 55% in size; overnight with compound
2A firefly – lowers the firefly signal of an FMDV 2A StopGo reporter. HEK cells with a luciferase reporter of 2A StopGo recoding. Potency, µM (titrated, usually from 57.5 µM), inactives show at the top dose signal change, negative = less light. 120,000 compounds, 0.23% hits. AID 1745856; active = well fitted falling curve with a large enough effect; inconclusive = small, poorly fitted or top-dose-only effect; inactive = no such curve, though single readings can be large or run the other way; also: nearly all actives have a fitted effect of over 60% in size; overnight with compound
* hit, by the source's call; ? = inconclusive; & = joins results of further samples; [ ] = another dose, or the depositor's remark. % is scaled to controls: 0 for no effect and ±100 for the full control effect; potency is read from the fitted curve at half-maximal effect.

molecule,StopGo RLuc,2A firefly
Cn1c(=O)c2ccccc2n(CC(=O)Nc2ccc(Cl)cc2F)c1=O,16.4%,16.5%
CCCCN(C)CCNC(=O)C1CCN(c2nc3ccc(CC)cc3s2)CC1,-9.8%,60.5%[activator]
CCN(c1ccc(OC)cc1)S(=O)(=O)c1nnc(NC(=O)COc2ccc(F)cc2)s1,-12.8%,-6.2%
COc1cccc(C(=O)NN2CC(O)=C(c3nc(-c4ccc(Cl)cc4)cs3)C2=N)c1,-11.2%,-11.2%
Cc1ccc(-n2ncc(C(=O)NCc3ccc4c(c3)OCO4)c2C2CCN(C(=O)OC(C)(C)C)CC2)c(C)c1,21.0%,-21.1%
CN1CCC(N(C)C(=O)CCn2ccc3ccccc32)CC1,-4.8%,-7.0%
COc1ccc(CN2C(NC(=O)OCc3ccccc3)=NC3=CC(C)(C)n4c(=O)n(-c5ccccc5)c(=O)n4C32)c(OC)c1 (stereo not given),0.0%,10.3%
Cn1c(=O)oc2cc(S(=O)(=O)Nc3ccc(O)cc3)ccc21,40.0%[activator],-17.5%
COc1cccc(-c2nnc(-c3ccccc3NC(=O)c3cccc(C(F)(F)F)c3)o2)c1,-9.8%,59.0%[activator]
CCOC(=O)c1c(C)[nH]c(C)c1S(=O)(=O)N1CCCC(C(=O)Nc2ccccc2OCC)C1 (stereo not given),61.3%[activator],30.4%
CC(C)OCCCNC(=O)c1cccc(CS(C)(=O)=O)c1,-0.4%,14.5%
Cc1ccc(CN2C(=O)C(O)(c3c[nH]c4ccccc34)c3cc(Cl)ccc32)cc1 (stereo not given),?,?
Cc1ccc(CN(CCc2ccccc2)C(=O)c2cccc(C#N)c2)s1,72.4%[activator],-22.8%
CCc1nc2nc(C)cc(Nc3cc(C)ccc3C)n2n1,0.3%,11.8%
CCOC(=O)c1ccccc1NC(=O)CSc1cn(CC(=O)N2CCOCC2)c2ccccc12,-20.1%,0.0%
O=C(NC1CCN(Cc2ccccc2)CC1)C(F)(F)F,10.8%,18.1%
CC(=O)c1c(C)[nH]c(C(=O)NCCc2ccc(F)cc2)c1C,36.5%[activator],197.4%[activator]
CC1=C(c2ccccc2)[N+](=O)C(C)(c2ccc(C)cc2)N1[O-] (stereo not given),2.2%,0.9%
CCC(Oc1ccc(F)cc1)C(=O)Nc1nc2c(s1)CCCC2 (stereo not given),-6.8%,15.9%
O=C(Nc1ccc(Br)cc1)c1cc(S(=O)(=O)NC2CCCC2)ccc1F,57.7%[activator],10.6%
O=C1CC[C@H](C(=O)N2CCCCC2)N1,-3.0%,-8.7%
C[N+](C)(C)CC1CC1,2.7%,6.2%
CCOc1ccc(S(=O)(=O)N2CCN(c3ccc(C)cc3C)CC2)c2ccccc12,82.0%[activator],23.2%
CN(C)c1cc(CNC(=O)/C=C/c2cccc(F)c2)ccn1,7.7%,0.0%
O=C(NC1CCCC1)N1CCCC1,3.2%,-3.3%
COc1cc(OC)cc(-c2nc3nc(C)c(CCC(=O)Nc4ccc(Cl)cc4)c(C)n3n2)c1,-2.3%,-17.3%
Cc1ccc(-c2cc(C(F)F)n3ncc(C#N)c3n2)cc1,-3.7%,-3.3%
COc1ccccc1NC(=O)C(=O)NCCc1csc(-c2cccc(F)c2)n1,-10.8%,-8.3%
Cc1ccc(NC(=O)CCc2c[nH]c3ccccc23)cc1Cl,6.8%,77.0%[activator]
CC(C)c1ccc(NC(=O)c2ccc(F)c(S(=O)(=O)N3CCc4ccccc4C3)c2)cc1,?,?
Clc1ccc(-c2cn3c4ccccc4n(CCN4CCOCC4)c3n2)cc1,3.7%,9.6%
COc1ccc(N2CC(C(=O)N3CCN(c4cccc(C(F)(F)F)c4)CC3)CC2=O)cc1 (stereo not given),?,?
Cc1cnc2c(S(=O)(=O)N(CC(C)C)C3CC3)cccc2c1,52.2%[activator],2.1%
COc1ccc(CC(=O)Nc2cc(-c3cn4cccnc4n3)ccc2OC)cc1,1.3%,-10.8%
CCCCNC(=O)c1cc(-c2ccc(OC)cc2)nc2ccccc12,26.2%,0.0%
Cn1c(NC(=O)c2ccc(F)c(F)c2)cc(=O)n(C)c1=O,-15.2%,-1.8%
CCN(CC)c1nc2ccccc2nc1C(=O)Nc1ccc(C)cc1,-3.1%,-0.4%
COC1CC(OC2CCC3(/C=N/O)[C@H]4CCC5(C)C(C6=CC(=O)OC6)CCC5(O)[C@@H]4CCC3(O)C2)OC(C)C1O (stereo not given in full),0.355µM*,?
COc1cccc(NC(=O)C2CCN(c3ccc(Sc4ccc(C)cc4)nn3)CC2)c1,-8.7%,-1.0%
Cc1cc(=O)oc2cc(OCC(=O)NCc3cccs3)c(Cl)cc12,11.3%,48.1%[activator]
O=C(COc1ccccc1)Nc1ccc(Cl)c(-c2nc3ccccc3o2)c1,21.3%,0.0%
CCCN1C(=O)C(NC(=O)c2ccccc2OC)(C(F)(F)F)C(C(=O)OC)=C1C (stereo not given),10.4%,-1.9%
Cc1ccc2oc(C(=O)N3CCCC3)cc(=O)c2c1,13.2%,10.7%
C=CCNC(=O)NC(=O)COC(=O)c1cc(-c2cccs2)nc2ccccc12,3.6%,13.7%
Cc1ccc(-n2nc(C(=O)N(C)Cc3ccccc3)c3c4ccccc4n(C)c3c2=O)cc1,-4.9%,2.2%
COc1ccc(C2C3=C(CC(C)(C)CC3=O)OC3=C2C(=O)CC(C)(C)C3)c(OC)c1,25.0%,-4.2%
Cc1ccc(CCNC(=O)NCc2noc3ccccc23)cc1,28.9%,45.4%[activator]
NS(=O)(=O)c1ccc2nc(NC(=O)COc3ccc(Cl)cc3Cl)sc2c1,-1.0%,14.5%
O=C(O)/C=C/c1ccc(F)cc1,9.1%,19.1%
O=C(Nc1sc2c(c1C(=O)N1CCCCC1)CCCC2)c1ccccc1Cl,236.8%[activator],32.1%[activator]

Pulled one by one from above:
molecule,StopGo RLuc,2A firefly
CC(C)c1ccc(NC(=O)c2ccc(F)c(S(=O)(=O)N3CCc4ccccc4C3)c2)cc1,?,?
COc1ccccc1NC(=O)C(=O)NCCc1csc(-c2cccc(F)c2)n1,-10.8%,-8.3%

Continuation:
molecule,StopGo RLuc,2A firefly
COc1ccccc1CNC(=O)CCc1c(C)nn(-c2ccc(N3CCCCC3)nn2)c1C,1.0%,15.7%
COc1cccc(CNC(=O)C2Cc3cc(S(=O)(=O)N4CCCCCC4)ccc3N2C(C)=O)c1 (stereo not given),-7.3%,-20.8%
Cc1cccc(Cn2c(SCc3ccc(C(=O)NC4CCCCC4)cc3)nc3cccnc32)c1,-1.5%,-29.1%
CCCOc1ccc(NC(=O)COc2ccccc2C)c2cccnc12,?,?
Cc1ccc2c(COC(=O)Cc3n[nH]c(=O)c4ccccc34)cc(=O)oc2c1,-2.2%,-1.4%
c1coc(-c2nc3ccccn3c2Nc2ccc3c(c2)OCCO3)c1,-4.5%,28.1%
CCOC(=O)CCN(Cc1ccccc1)S(=O)(=O)c1csc(C(N)=O)c1,148.3%[activator],-8.9%
CSc1nc(C)c(CCC(=O)Nc2nc(-c3ccc4c(c3)CCO4)cs2)c(C)n1,?,?
Cn1cnc2c1c(=O)n(CCCOc1ccccc1C#N)c(=O)n2C,11.8%,62.4%[activator]
CC1(C)CC(NC(=S)Nc2cccc(Cl)c2)CC(C)(C)N1,-8.6%,-0.6%
COc1ccc2[nH]cc(CCN=C(NC(=O)c3ccccc3C)Nc3nc(C)cc(C)n3)c2c1,-4.8%,-18.4%
CCC(CC)NC1CC1,-4.3%,1.3%
Cc1ccccc1C(=O)/C=C/c1cc2ccccc2nc1N1CCOCC1,?,?
CN(CCO)c1nc2c(c(=O)n(Cc3ccccc3F)c(=O)n2C)n1C,-17.7%,-8.4%
O=C(COc1ccc2nc3n(c(=O)c2c1)CCC3)NC1CCCC1,1.5%,15.0%
COC(=O)c1cc(NC(=O)C2CCCN(S(=O)(=O)c3c(C)n[nH]c3C)C2)cc(C(=O)OC)c1 (stereo not given),-1.3%,2.8%
COc1cccc(C2C(C(=O)Nc3ccccc3)=C(C)Nc3ncnn32)c1OC (stereo not given),-2.7%,-4.1%
COc1cc(C2CC(=O)Nc3c2c(C)nn3-c2nncc(-c3ccc(C)cc3)n2)cc(OC)c1O (stereo not given),-8.6%,-1.6%
Cc1oc(-c2ccccc2F)nc1CN1CCC(C(=O)NCCc2ccccc2)CC1,-20.7%,-17.0%
COc1c(CNC2CCN(Cc3ccccc3)C2)c(C)nn1C (stereo not given),9.5%,17.6%
CN(CC(=O)N(C)c1c(N)n(Cc2ccccc2)c(=O)[nH]c1=O)Cc1ccc(-c2ccccc2)cc1,-14.8%,-1.3%
CC12CC3(C)CC(CC(=O)O)(C1)CC(CC(=O)O)(C2)C3,20.9%,0.0%
C/C=C/C=C/C(=O)NC1CC2CCC1(C)C2(C)C (stereo not given),-3.1%,22.1%
Cc1cccc(N(CC(=O)NCCSCc2ccc(Cl)cc2)S(C)(=O)=O)c1C,-22.9%,?
O=C(NC1CCCc2ccccc21)C1(c2ccccc2)CC1 (stereo not given),40.0%[activator],-4.7%
Fc1ccccc1Oc1ncnc2c1oc1ccccc12,9.9%&-12.0%,21.7%&95.1%
CCOc1ccc(S(=O)(=O)N(CC(=O)Nc2ccc3c(c2)OCO3)c2ccc(C)cc2)cc1,16.6%,-6.2%
CCCSc1nnc(-c2ccccc2NC(C)=O)c(=O)[nH]1,-1.6%,-0.2%
CCOc1ccc2ncc3c(-c4cccc(OC)c4)nn(-c4ccccc4)c3c2c1,-3.2%,7.2%
CCCCNC(=S)N(C)/N=C/c1cc(Br)ccc1F,6.1%,-2.5%
CCc1nc2ccccc2c(NC(=O)CN2CCN(c3ccccc3)CC2)c1C,-10.3%,-17.2%
Cc1ccccc1-n1nc(CO)c(C(=O)NCc2cccs2)n1,?,?
CSCCCNC(=S)NC1CC(C)(C)NC(C)(C)C1,7.8%,4.2%
NC(=O)c1ccc(NC(=O)C(c2ccccc2)c2ccccc2)cc1,-1.6%,-14.3%
CCc1c(C)sc(NC(=O)c2ccccc2F)c1C#N,15.1%,0.0%
CCCOc1nc2ccccc2nc1N1CCC(C(=O)NC(C)c2ccccc2)CC1 (stereo not given),-4.8%,1.4%
c1csc(CNCc2cccc3[nH]ccc23)c1,11.4%,61.4%[activator]
CCOC(=O)C(C)Sc1nc(-c2ccccc2Cl)cc(-c2ccccc2)c1C#N (stereo not given),2.9%,-10.7%
Cc1nc2ccc(NC(=O)c3n[nH]c(=O)c4ccccc34)cc2s1,0.6%,140.0%[activator]
Cc1ccc(CNC(=O)CN2CCN(c3nccs3)CC2)cc1F,-0.7%,0.0%
CCN(CC)c1nc2c(S(=O)(=O)c3ccc(C(C)C)cc3)nnn2c2ccsc12,-2.8%,-0.8%
O=C(CSc1ncc(S(=O)(=O)c2ccc(Br)cc2)c(=O)[nH]1)NCc1ccccc1Cl,-5.9%,-11.9%
CC(=O)Nc1ccc(SCCCC(=O)c2ccc(F)cc2)cc1,66.7%[activator],163.7%[activator]
CCCCNc1nc(-c2ccc(Cl)cc2Cl)cs1,33.5%[activator],221.6%[activator]
COc1ccccc1N1CCN(C(=O)c2c3c(nc4ccccc24)C(=O)N(C2CCCCC2)C3)CC1,21.5%,3.3%
CC1CCN(S(=O)(=O)c2cc(C(=O)NCc3ccccc3)n(C)c2)CC1,38.0%[activator],10.2%
C=CCOc1ccc(-c2nc3c(c(=O)[nH]c(=O)n3Cc3ccccc3)n2CCCOC)cc1,-9.3%,-5.5%
CNC(=O)NC(=O)C(c1ccccc1)N(C)CC(=O)NCCOC (stereo not given),-6.6%,2.0%
O=S(=O)(Nc1ccc(Br)cc1F)c1ccc2nc(-c3ccccc3)[nH]c2c1,256.0%[activator],-1.2%
CCc1ccc(C(=O)N(Cc2ccncc2)C2CC2)o1,-11.1%,-10.6%

Additional results follow.
molecule,StopGo RLuc,2A firefly
O=[N+]([O-])c1cccc2ncc(Cl)cc12,-3.4%,14.4%
Cc1cc(C)cc(N2CC(c3nc(-c4cccnc4)no3)CC2=O)c1 (stereo not given),-3.6%,-6.1%
O=C(c1cccs1)c1cn(CCOc2ccccc2F)c2ccccc12,7.1%,21.3%
CC1CCC(NC(=O)c2ccccc2SCC#N)CC1 (stereo not given),14.7%,0.0%
COc1ccc(OC)c(CNCc2cccn2-c2nnc(N3CCOCC3)s2)c1,-2.5%,0.0%
COC(=O)c1ccc(/C=C(\C#N)C(=O)Nc2ccccc2C(=O)O)cc1,-2.5%,9.9%
COc1ccc(C)cc1NC(=O)C(C)O/N=C/c1ccc(Cl)cc1 (stereo not given),11.7%,12.5%
COCCN(Cc1cccs1)S(=O)(=O)c1cccc(C(=O)O)c1,-1.5%,3.8%
COC(=O)c1c(COC(=O)c2ccc(N3CCCS3(=O)=O)cc2)nc2ccccc2c1C,0.3%,12.8%
Cc1noc(C)c1COc1ccc(CC(=O)Nc2ncc(Cc3ccccc3)s2)cc1,-11.4%,-7.0%
CC(C)(C)OC(=O)N1CCC(c2c(C(=O)NCCN3CCOCC3)cnn2-c2ccc(F)cc2)CC1,-10.7%,0.0%
FC(F)(F)c1ccccc1N/N=C/c1ccc(Cl)cc1Cl,-4.7%[1.06 µM],0.0%

High-throughput results from PubChem.
